# Screening data as filed in PubChem.
# Bfl-1 A1 inh: inhibitors of the anti-apoptotic protein A1, read as caspase activation; AID 2462; caspase activation, % (no concentration beside the values); MEF A1-2A-BIM cells, Caspase-Glo 3/7 luminescence, 3 h; percent of clofoctol response, vehicle zero; 0.066% of 330,000 active;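 active = over half of replicate activation scores above 10%, or exactly half above 10 with the replicate mean above 10; inconclusive = replicate mean below 10 yet half the replicates above 10; inactive = over half of replicates below 10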;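 also: wells of about 30 µL received 50 nL stock; many hits fall short of the cut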
# Calb FLC: C. albicans growth modulation with fluconazole. C. albicans CaCi-2 (fluconazole-resistant clinical isolate) + fluconazole, Alamar Blue growth, 48 h. 0.57% of 300,000 active. growth inhibition, % (test concentration not listed). AID 1979;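 active = most replicates above 75%; inconclusive = exactly half above 75%; inactive = most below 75%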;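 also: all wells also contain fluconazole at 8 µg/ml as a sub-toxic cotreatment; 0% = median of DMSO wells and 100% = median of geldanamycin control wells; wells of about 8 µL received 7.5 nL stock; the first replicate is given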
# rRNA inh HTS: selective bacterial rRNA inhibition in E. coli | E. coli WT GFP vs humanized-ribosome RFP mutants, fluorescence, 24 h; active compounds read low; DMSO median 0, no signal -100 | GFP signal change (wild-type ribosome), % (no concentration beside the values) | 1.6% of 350,000 active | AID 720706;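 active = significant combined selectivity score with lowered wild-type GFP, culture density cut under 30%, mutant RFP and density less affected; inactive = any of these conditions unmet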; also: one replicate is shown; some compounds called inactive have numbers as strong as hits
# Beta apoptosis: beta cell apoptosis inhibition. INS-1E cytokine-induced death, ATP luminescence, 48 h; percent of positive-control rescue, neutral wells zero. 0.8% of 300,000 active. protection from apoptosis, % (no concentration beside the values). AID 435005;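 active = all replicates at 75% or more, or half of them and the mean; inconclusive = half reach 75% but not the mean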;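 also: 0% = cytokine-treated negative control wells and 100% = positive control rescue; higher means more ATP so stronger rescue from cytokine killing; wells of about 40 µL received 100 nL stock; the first replicate is given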
# Vif A3G: HIV-1 Vif–A3G interaction blockers – biochemical, TR-FRET, GST-Vif 1-94, biotin-A3G peptide, dose response retest, primary screen (AID 1117319); inhibition, %; hits with a dose series show IC50 in µM; 0.57% of 260,000 active; TR-FRET GST-Vif / biotin-A3G peptide binding; higher % means a stronger effect; test concentration not given here; strong numbers were not always called active;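 active = above the screen mean plus three standard deviations and confirmed in dose response; inconclusive = results disagree or hit not tested in dose response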;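 also: Vif residues 1-94 fused to GST binding biotinylated APOBEC3G peptide 110-148; 0% = full assay without inhibitor and 100% = GST in place of GST-Vif; retest series ran down from 100 µM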
# MLL AF4-AF9 inh: blocks AF4 peptide binding to human AF9. AID 651704. 0.47% of 350,000 active. inhibition, % at 10 µM. P42568. AlphaScreen, biotin-AF4 peptide binding to FLAG-AF9;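 active = every replicate reaching a set inhibition limit, whatever the replicate mean, cut at about 25% in these data; inconclusive = mean inhibition reaches that limit but some replicates miss it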;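 also: 0% = plate neutral control median and 100% = total signal loss; the record names both 10 and 1 µM as test concentration; the first replicate is given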
# Target sequence (P42568 whole entry, looked up): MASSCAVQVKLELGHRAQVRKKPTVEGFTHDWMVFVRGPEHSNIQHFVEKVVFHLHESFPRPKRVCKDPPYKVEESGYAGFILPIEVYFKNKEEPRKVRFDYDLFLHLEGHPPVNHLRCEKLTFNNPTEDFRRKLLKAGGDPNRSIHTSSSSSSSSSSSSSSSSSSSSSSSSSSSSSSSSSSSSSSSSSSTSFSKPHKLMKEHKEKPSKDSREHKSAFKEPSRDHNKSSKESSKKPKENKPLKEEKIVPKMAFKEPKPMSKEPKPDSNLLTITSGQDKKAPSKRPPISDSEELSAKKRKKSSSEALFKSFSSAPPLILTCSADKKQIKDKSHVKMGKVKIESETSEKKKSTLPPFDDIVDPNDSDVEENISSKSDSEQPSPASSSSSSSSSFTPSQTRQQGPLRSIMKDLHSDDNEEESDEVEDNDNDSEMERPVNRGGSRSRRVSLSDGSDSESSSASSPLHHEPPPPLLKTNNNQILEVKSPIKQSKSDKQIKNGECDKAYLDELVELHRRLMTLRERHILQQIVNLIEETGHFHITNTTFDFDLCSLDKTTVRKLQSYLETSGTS
# T cruzi inh: T. cruzi replication inhibition. inhibition, % (test concentration not listed). T. cruzi beta-gal in NIH3T3, luminescence, 90 h. 1.4% of 300,000 active. AID 1885;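 active = mean inhibition across valid replicates above about 55%, limit read from the data; inconclusive = mean below that limit but half or more replicates reach it; inactive = mean below it, under half of replicates reach it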;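 also: signal also drops with host cell toxicity which is not excluded here; 0% = plate median of DMSO wells and 100% = zero luminescence signal; higher percent means less beta-gal luminescence so fewer parasites; stock transfer was 50 nL into about 50 µL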
# RanGTP-Imp inh: disruptors of Ran-importin-beta complex formation – biochemical, FRET, CFP-Ran, YFP-importin-beta, homogeneous, primary screen; cell-free CFP-Ran/YFP-importin-beta FRET ratio; inhibition, % (concentration not given with the values); 1.1% of 300,000 active; AID 2216;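 active = most replicates above 15%; inconclusive = exactly half above 15%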;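 also: 0% = DMSO wells and 100% = Ran loaded with GDP instead of GTP; wells of about 40 µL received 100 nL stock; the first replicate is given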
# rRNA inh HTS OD600: further read-out of rRNA inh HTS, marked with its call; OD600 change, %; measured here: OD600 growth;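 optical density of the mix in the first replicate; 0 = DMSO median and -100 = no signal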
# rRNA inh HTS RFP: also measured in rRNA inh HTS; calls as there; RFP signal change, %; measured here: RFP humanized mutant strains;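 first replicate; 0 = DMSO median and -100 = no signal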
# * marks the source's active call; other numbers are inactive results; u = inconclusive; x = not tested or not shown.
SMILES,Bfl-1 A1 inh,Calb FLC,rRNA inh HTS,rRNA inh HTS OD600,rRNA inh HTS RFP,Beta apoptosis,Vif A3G,MLL AF4-AF9 inh,T cruzi inh,RanGTP-Imp inh
Nc1ccc(N=Nc2ccccc2Cl)c(N)n1,-7.8,-3,-31*,-19*,-5.3*,-3,1%,31*,45,-6.7
N#CCCCN1C(=O)C(=C(C#N)C#N)c2ccccc21,0.5,-46,5,4,-0.7,8,x,0.3,-20,-5.6
Cc1noc(C)c1COC(=O)CCc1ccc(S(=O)(=O)N2CCCCC2)cc1,1.0,0,x,x,x,-6,-1%,x,8,2.9
CC(C)(C)NC(=O)C(=O)NN=C1CCCCCCCCCCC1,0.1,-5,11,13,1.8,-2,-4%,-1.2,-7,-4.9
COC(=O)N(C)c1ccccc1C(=O)N1CCOCC1,-0.3,-5,x,x,x,-1,-4%,x,-5,0.7
O=C(c1cc(S(=O)(=O)N2CCOCC2)ccc1F)N1CCc2ccccc21,0.2,x,-3,-2,0.7,-5,x,0.6,x,x
Cc1cc(=O)[nH]c(NN=C(CC(C)C)CC(C)C)n1,-0.7,-13,-3,-6,-4.1,0,x,-2.2,-20,-4.6
COc1ccc(/C=C(\NC(=O)c2ccccc2)C(=O)N/N=C/c2sccc2C)cc1,0.5,-12,14,3,-10,-7,18%,-1.1,42,0.7
Cc1ccccc1N1CC(C(=O)Nc2ccncc2)CC1=O (stereo unspecified),0.3,-5,7,8,0.1,x,-2%,-3.6,-7,4.4
CSCCC1NC(=O)N(CC(=O)Nc2c(C(C)C)cccc2C(C)C)C1=O (stereo unspecified),0.5,2,14,4,-15,2,-2%,-1.1,-8,2.5
O=C(NCCO)Nc1ccc2nsnc2c1,-0.5,8,15,16,0.4,1,13%,-0.4,-16,u
CCOC(=O)c1sc2ccccc2c1OC(=O)c1ccccc1OC,0.3,11,4,6,-1.4,3,x,-1.6,-13,1.4
Cc1cccc(Cn2cnc3c(nnn3Cc3ccc(Cl)cc3)c2=O)c1,-0.3,-4,x,x,x,-3,7%,x,18,6.1
COc1ccc(C(=O)OCC(=O)NCC2CCCO2)cc1S(=O)(=O)N1CCCc2ccccc21 (stereo unspecified),0.3,5,-19,-19,-1.5,x,22%,-1.1,-1,-2.0
CCOC(=O)CCP(=O)(O)C(O)c1ccc(OC)cc1 (stereo unspecified),0.3,-5,x,x,x,-10,2%,x,8,-0.3
CNC(=O)c1c(NC(=O)C2=COCCO2)sc2c1CCCC2,0.6,-4,-11,-12,-3.4,-4,33%,3.6,-10,3.0
Cc1ccc(SC(C)C(=O)NCC(C)C)cc1 (stereo unspecified),-0.1,-5,1,5,1.6,-6,21%,-62,-11,-1.9
CCCCNC(=O)Nc1ncn[nH]1,-0.3,7,8,11,4.6,-3,-6%,1.1,-10,1.0
CCN1N=C(c2ccccc2)CCC1=O,-0.5,21,6,12,0.6,-1,x,-5.0,-24,2.2
COc1ccc(CCCc2nnc(SCC(=O)N/N=C\c3ccc(O)c(OC)c3)o2)cc1C,-0.7,-3,x,x,x,-10,-3%,x,x,-1.8
Cc1ccccc1C(=O)NNC(=S)NC(=O)COc1ccccc1,0.0,-28,-22*,-16*,-5.0*,-10,-9%,4.6,-5,-3.4
COc1ccc(OCC(=O)Nc2ccc(S(=O)(=O)N3CCOCC3)cc2)cc1,-1.8,3,x,x,x,2,2%,x,6,0.7
O=S(=O)(c1ccc(C2CCCCC2)cc1)N1CCCC1,0.0,-4,x,x,x,1,10%,x,26,3.4
O=C(CSc1nc(=O)n2ccccc2n1)NC1CCCCC1,-0.4,6,9,12,-1.3,x,2%,-20,-4,2.8
CCOC(OCC)c1cn(Cc2ccc(C(=O)c3ccccc3)cc2)nn1,0.2,-8,7,8,1.3,-1,x,-1.2,-7,-2.2
CCN(CC)S(=O)(=O)c1ccc2nc(NC(=O)c3ccco3)sc2c1,-0.3,12,-29,-24,9.3,2,-1%,-2.7,3,0.0
CCCNCc1cc(OCC)c(OCC(=O)Nc2ccccc2)cc1Br,0.4,-48,1,1,-2.2,-4,11%,-0.5,35,0.1
Cc1cc(-n2c(C)cc(C(=O)CN3C(=O)NC4(CCCCCC4)C3=O)c2C)no1,0.0,-5,x,x,x,x,1%,x,6,-5.2
O=C(Nc1cccc2ccccc12)/C(=C/c1ccc([N+](=O)[O-])cc1)NC(=O)c1ccccc1,-0.2,8,x,x,x,4,0%,x,-1,-2.2
COc1ccc(N(C)S(=O)(=O)c2cccc(C(=O)OCC(=O)N3CC(C)CC(C)C3)c2)cc1 (stereo unspecified),-0.5,x,-10,-19,4.1,-11,-8%,10,x,x
COC(=O)c1ccc(C(=O)N2CCCC(Nc3ccc(C(C)C)cc3)C2)nc1 (stereo unspecified),-2.0,-4,5,3,1.1,-1,x,2.7,-3,6.1
Cc1sc(NC(=O)CSc2nnc3scc(-c4ccccc4)n23)c(C#N)c1C,0.5,2,x,x,x,10,4%,x,x,0.0
CCc1ccc(S(=O)(=O)/N=C2\C=C(Nc3ccc(C(=O)O)cc3)C(=O)c3ccccc32)cc1,-0.4,5,7,-24,-4.9,103*,x,28*,-8,-0.7
CCOC(=O)C1(CCOC)CCN(Cc2nc(C(C)C)cs2)CC1,-0.2,-1,0,6,-5.0,-1,3%,-1.3,-6,u
O=c1oc(Cl)c(Cl)c2ccccc12,-0.9,x,5,1,1.5,0,x,5.4,x,x
CC(C)(C)OC(=O)NCC1CCC(C(=O)NC[C@H](CC(=O)O)c2ccc(Cl)cc2)CC1 (stereo partly specified),0.0,-7,10,7,0.4,-13,1%,-1.3,-22,1.9
Cc1c(C)n(Cc2ccccc2)c2ccc(C(=O)NCCN3CCOCC3)cc12,-1.5,-16,-28,-30,2.4,-2,x,11,6,-3.2
COc1ccc(-n2c(=O)[nH]cc(C(=O)N3CCCc4ccccc43)c2=O)cc1,0.1,5,x,x,x,x,-5%,x,-11,u
Cc1sc2nc(C)n(/N=C/N(C)C)c(=O)c2c1C,0.8,-15,14,6,4.4,-5,u,-3.7,-5,0.3
O=C(Oc1cccc([N+](=O)[O-])c1)N1CCCCC1,0.4,u,6,10,1.3,-10,x,-3.5,13,1.0
COc1ccc(CNC(=O)C(C)OC(=O)CCN2C(=O)C3CC=CCC3C2=O)cc1 (stereo unspecified),-0.5,2,13,10,0.9,x,-1%,2.6,-7,1.0
COc1ccccc1CN1CCNC(=O)C1CC(=O)NCC1CCOCC1 (stereo unspecified),0.3,-12,18,17,3.9,1,x,0.3,-13,-0.3
N#CCc1ccc(OC(=O)c2cccnc2Cl)cc1,-2.9,4,-1,4,3.1,-2,x,-3.9,-18,-0.4
Cc1ccccc1C(=O)NNC(=O)c1ccoc1C,-1.7,-11,x,x,x,-1,0%,x,-11,-0.4
CSCC[C@H](NC(=O)N1CCn2c1nc1ccccc12)C(=O)NCc1ccco1,0.3,-5,-10,1,7.7,-1,x,-1.1,-3,-0.3
COc1ccccc1/C=C(/CC(=O)NCc1ccccc1)c1nc2ccccc2s1,0.9,13,x,x,x,-12,45µM*,x,14,-0.2
COc1ccc(/C=N/NS(=O)(=O)c2ccc(NC(C)=O)cc2)cc1,-0.2,-17,7,0,-6.8,1,10%,3.6,-17,1.6
CC(C)=CCc1c(O)cc(O)c2c1OC(c1ccc(O)cc1)CC2=O (stereo unspecified),-0.7,1,x,x,x,0,x,2.4,-21,-0.1
Clc1ccc(-n2nnnc2-c2cnc(-c3ccccn3)nc2-c2cccs2)cc1,1.0,-1,x,x,x,4,19%,x,6,-2.1
Cc1ccc(C)c(CN2CCCN(Cc3cc(C)ccc3C)S2(=O)=O)c1,0.8,-11,14,13,1.3,x,-2%,1.8,26,-4.0
CN(C)Cc1c(C(=O)N/N=C/C2CC=CCC2)nnn1-c1nonc1N (stereo unspecified),0.5,-9,3,8,5.2,-5,x,1.3,9,u
CCN(CC(=O)Nc1ccc(OC)cc1)C(=O)c1ccc(Cl)c(S(=O)(=O)N2CCCC2)c1,-0.6,x,0,-17,6.1,-3,-2%,-0.7,x,x
Cc1ccc(S(=O)(=O)n2nc(OC(=O)c3c(F)cccc3Cl)cc2N)cc1,0.5,-7,4,6,-0.6,-2,2%,-0.3,-11,-1.3
Cc1ccc(C2NC(=NCc3ccccc3)Nc3nc(C)cc(=O)n32)cc1 (stereo unspecified),0.1,-19,3,3,4.0,-13,30%,0.6,10,1.1
Cc1sc(NC(=O)CN(Cc2ccccc2)C(=O)C(C)C)c(C(N)=O)c1C,1.4,16,-1,-3,0.8,-9,-9%,-1.1,7,u
CC1CN(C(=O)CSc2nc(N)cc(N)n2)CC(C)O1 (stereo unspecified),0.4,x,5,5,-1.2,-1,x,1.4,x,x
CCN(CC)CCCn1c(=S)[nH]c2cc(C(=O)OC)ccc2c1=O,1.6,u,x,x,x,-13,-11%,x,-7,u
Cc1ccc(S(=O)(=O)NNC(=O)C2COc3ccccc3O2)cc1C (stereo unspecified),1.0,2,-8,-4,4.7,-1,-10%,-1.7,3,-2.5
O=C(COC(=O)c1cccc(C(=O)OCC(=O)NC2CC2)n1)NC1CC1,-0.8,-4,15,15,1.1,-3,3%,1.0,-14,0.7
CCOc1ncccc1C(=O)NCc1ccccc1Cl,0.3,0,-26,-23,-3.7,-3,-3%,-1.0,-2,0.0

# Overlap with the part before: 2 compounds, then new ones.
SMILES,Bfl-1 A1 inh,Calb FLC,rRNA inh HTS,rRNA inh HTS OD600,rRNA inh HTS RFP,Beta apoptosis,Vif A3G,MLL AF4-AF9 inh,T cruzi inh,RanGTP-Imp inh
O=C(COC(=O)c1cccc(C(=O)OCC(=O)NC2CC2)n1)NC1CC1,-0.8,-4,15,15,1.1,-3,3%,1.0,-14,0.7
CCOc1ncccc1C(=O)NCc1ccccc1Cl,0.3,0,-26,-23,-3.7,-3,-3%,-1.0,-2,0.0
O=C(Cn1cnc2c(nnn2-c2ccc(F)cc2)c1=O)NCC1CCCO1 (stereo unspecified),-0.6,3,-3,-13,-2.8,0,2%,7.1,-16,1.0
Cc1ccccc1C(=O)c1cccn1CC(=O)NC(C)c1ccccc1 (stereo unspecified),0.0,-5,-14,-11,-1.0,2,x,-1.0,8,-1.5
Cc1ccccc1C(=O)NC1CCN(C(=O)NCc2ccccc2)CC1,0.3,0,5,5,-2.9,-3,-1%,0.0,-7,-3.0
COc1ccnc(-n2cccc2C=O)c1C#N,-0.4,-7,x,x,x,-3,18%,x,2,1.1
COc1cccc(/C=N/Nc2ccc([N+](=O)[O-])cc2)c1O,-4.3,-8,-3,-7,2.2,10,x,0.3,-4,-2.1

# An excerpt; rates above refer to the full screens.
